# Source: PubChem
# BJeLR viability: kills HRASV12-expressing BJeLR cells; BJeLR (HRASV12) viability, CellTiter-Glo ATP luminescence, 48 h; reference of the scale not given here; inhibition, % (concentration not given with the values); 300,000 compounds, 0.17% hits; AID 1554;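 active = replicate mean above 50%; inconclusive = above 50% but judged a plate artefact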;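 note: 50 nL library stock added to about 25 µL; numbers are from one replicate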
# Mtb hypoxia inh: Mtb hypoxia fluorescent reporter inhibition | 300,000 compounds, 0.1% hits | M. tuberculosis hypoxia-regulated fluorescent reporter, fluorescence | AID 1159583 | fluorescence inhibition, % (no concentration beside the values);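 active = 35 to 45% if threefold the growth effect, above 45% if 1.5-fold the growth effect; inactive = the rest, general growth blockers included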;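 note: wells of about 50 µL received 100 nL stock; 0% = vehicle wells and 100% = reference inhibitor wells; whole bacteria with a GFP reporter of the hypoxia response; strong numbers were not always called active; many hits fall short of the cut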
# Sa RN4220 lethal: S. aureus RN4220 growth inhibition; inhibition, % (test concentration not listed); OD600, 16 h; 330,000 compounds, 0.33% hits;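 active = z-score of -3 or lower and OD600 up to 0.18 on both plates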;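 note: plate controls were untreated cells for no effect and reference antibiotic for full effect; stock transfer was 100 nL into about 80 µL; one replicate is shown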
# Bead autofluor: counter-screen for toxin protease inhibitors: compound fluorescence; compound autofluorescence counterscreen, microsphere flow cytometry; active compounds read high; fluorescence intensity (concentration not given with the values); 360,000 compounds, 3.1% hits; AID 624483;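 active = at least 3 SD above the mean of all compounds, about 16000 in these data; inconclusive = too few beads counted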;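 note: 100 nL of 1 mM stock went into each well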
# ugtP null kill: compounds lethal to S. aureus RN4220 ugtP deletion mutant; AID 1259309; OD600 growth, 16 h; some inactives read as strong as hits; growth inhibition, % (test concentration not listed); 330,000 compounds, 0.54% hits;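 active = z-score under -3 and OD600 up to 0.15 on both plates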;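 note: plate controls were untreated wells for no effect and antibiotic for full effect; wells of about 80 µL received 100 nL stock; the first replicate is given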
# PrP UTR inh: suppresses PrP 5' UTR mRNA reporter expression; cell-based PrP 5' UTR mRNA reporter, plate reader; inhibition, % (concentration not given with the values); 340,000 compounds, 0.35% hits; AID 488862;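 active = every replicate at 50% or more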;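 note: 0 = median of the neutral control wells; tested in H4 reporter cells; numbers are from one replicate; inactives centre near -14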
# Mtb hypoxia inh growth: also measured in Mtb hypoxia inh; calls as there; growth inhibition, %; measured here: M. tuberculosis growth (absorbance);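 0% = vehicle and 100% = reference antibiotic; read after six days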
# * hit, by the source's call; ? = inconclusive; . = not tested or not shown.
SMILES,BJeLR viability,Mtb hypoxia inh,Mtb hypoxia inh growth,Sa RN4220 lethal,Bead autofluor,ugtP null kill,PrP UTR inh
Cc1ccc2nc(NC(=O)CCCc3nc4ccccc4s3)sc2c1,-8,4,10,1.5,3267,-5,-58
Cc1c(C#N)c(N)nc(Cl)c1C#N,0,7,13,20,3397,14,-6
Cc1ccc([N+](=O)[O-])cc1N,5,6,6,0.7,4430,8,-15
CC(=O)Nc1cccc(Nc2nc(-c3ccccc3)nc3ccccc23)c1,-8,7,7,-10,4129,12,-5
CCC(=O)N1CCN(c2ccc(NC(=O)COc3ccc(CC)cc3)cc2)CC1,3,-1,-1,-3.3,5461,4,-15
Cc1ccc(NC(=O)C(=O)NCc2ccc(C=NNC(=O)c3c(C)nc4ccccn34)o2)cc1,.,7,0,8.1,.,-3,.
COc1ccc(CCN2CC(C(=O)N(C)Cc3ccccc3OC)CCC2=O)cc1 (configuration not stated),4,-4,-2,0.8,5015,-1,-38
CCN(CC)c1ccc(/C=N/NS(=O)(=O)c2ccc(C)c([N+](=O)[O-])c2)cc1,11,.,.,.,2605,.,-13
O=C(Cc1cccs1)OCC(=O)c1ccco1,-2,9,8,-10,2891,-5,-19
CC1CCN(c2ccc([N+](=O)[O-])cc2C(N)=O)CC1,8,16,-8,5.7,4249,5,-12
Cn1cccc1Cc1nnc(SCC(=O)NCCc2ccccc2)n1C,0,6,8,1.6,1999,12,-3
CC(C)N(C(=O)[C@H]1C[C@H](CC(=O)NCCCN(C)C)C(=O)N2CCc3c([nH]c4cc(-c5ccco5)ccc34)[C@]12C)C(C)C,.,-1,6,-11,3164,-7,-13
Cc1ccc(OCc2ccc(C(=O)Nc3ccc(C(N)=O)cc3)o2)c([N+](=O)[O-])c1,6,12,6,3.6,2152,-4,-23
C[C@H](NS(=O)(=O)c1ccc(Cl)cc1)C(=O)OCC(=O)N1CCOCC1,.,8,5,4.4,4524,2,-13
Cc1cc(C(=O)NC2CCCC(C)C2C)c2ccccc2n1 (configuration not stated),7,14,5,3.7,5339,5,-20
N/C(=N\OC(=O)c1cccc(F)c1)c1cccc([N+](=O)[O-])c1,-9,.,.,.,3159,.,-68
CC(C)Cn1c(N)c(C(=O)COC(=O)C2CCCN2C(=O)c2cccs2)c(=O)n(C)c1=O (configuration not stated),.,-1,1,2.0,3858,-5,-14
CCCCCOc1ccc(C2C(C(C)=O)=C(C)Nc3ncnn32)cc1OC (configuration not stated),-2,2,4,-1.9,3194,1,-24
Cc1ccccc1CNC(=O)C(=O)NCC1CCCN1S(=O)(=O)c1ccccc1 (configuration not stated),3,2,1,4.5,5016,11,-26
O=C(Cc1ccccc1)Nc1ccc(-c2nnc(-c3ccco3)o2)cc1,-8,.,.,1.0,5206,4,-35
COC(=O)[C@@H]1C[C@H]2CC[C@H](O)C[C@H]2N1Cc1ccc(C(F)(F)F)cc1,13,.,.,.,3796,.,-14
CN(C)C(=O)Nc1cnc2ccccc2c1,-13,3,10,1.1,3089,-3,-16
CCN(CC)c1ccc(NC(=O)COC(=O)C2CCN(c3ccc(C(F)(F)F)cn3)CC2)cc1,.,0,3,1.5,5404,4,-3
O=C1CCN(Cc2ccc(Br)cc2)CCN1C(CO)Cc1ccccc1 (configuration not stated),.,5,0,7.0,.,-1,.
CC(C)CC(C)c1cc(N)nc2nc3ccccc3n12 (configuration not stated),5,-1,8,2.9,2110,-2,5
N/C(=N\OC(=O)Cc1ccc(-c2ccccc2)cc1)c1ccccn1,-11,4,9,4.1,4076,-6,-5
CCCCNc1oc(-c2cccs2)nc1S(=O)(=O)c1ccccc1,3,5,1,4.3,22130*,4,-15
CC(=O)c1c(C)[nH]c(C(=O)N2CCN(S(=O)(=O)c3ccc(F)c(F)c3)CC2)c1C,-1,5,-3,2.7,.,3,-3
Cn1c(=O)n(C)c2cc(S(=O)(=O)NCc3ccco3)ccc21,1,8,9,3.5,2653,3,-8
Cc1ccc(-n2nc(C)c(C3(O)C(=O)N(C)c4ccccc43)c2N)cc1 (configuration not stated),1,5,10,1.6,2257,6,-16
COc1ccc(OC)c(NC(=O)CCNS(=O)(=O)c2ccc3c(c2)c(=O)n(C)c(=O)n3C)c1,0,.,.,.,3423,.,10
O=C(O)CC1SC(=NN=C2C(=O)Nc3ccccc32)N(c2ccc(O)cc2)C1=O (configuration not stated),.,-5,2,4.7,.,3,.
COC(=O)c1sc(N2C(=O)C(O)=C(C(=O)c3ccc(C)o3)C2c2ccc(F)cc2)nc1C (configuration not stated),1,-4,1,4.9,11975,70,-27
CC(=O)C1=C(C)OC(N)=C(C#N)C1c1cc2cc(C)c(C)cc2nc1Cl (configuration not stated),1,-1,3,5.0,?,5,-14
Cc1noc(C)c1C(=O)OC(C)C(=O)N1CCc2ccccc21 (configuration not stated),.,-2,-4,-5.4,4039,-4,-18
Cc1cc(NC(=O)CSc2nnc(NC(=O)C3CC(=O)N(c4ccccc4)C3)s2)no1 (configuration not stated),13,15,11,7.8,8000,3,-17
CC1(c2ccc(Cl)cc2Cl)OCC(Cn2cncn2)O1 (configuration not stated),-3,0,-10,4.8,4534,0,-17
COc1cc(OC)c2ccc(=O)oc2c1,.,.,.,-1.1,5622,-5,-11
O=C(CCn1cnnn1)Nc1ccc(F)cc1,4,17,-4,3.2,1980,1,-25
Cc1cc(C)n2c(SCCN3C(=O)c4ccccc4C3=O)nnc2n1,-8,.,.,1.3,6397,13,-29
CCCCN1CCCC1CNC(=O)c1cc(C#N)c2ccccc2c1OC (configuration not stated),-1,-2,3,2.7,.,-1,.
NC1=NC[C@H](c2ccccc2)N1CCc1cc(C(F)(F)F)cc(C(F)(F)F)c1,-4,.,.,.,3999,.,-28
CCc1ccc(C(=O)NCc2ccc(Cl)cc2Cl)cc1,-10,15,16,6.0,11127,-4,-24
Cc1ccc(C)c(NC(=S)NNc2ccc(F)cc2F)c1,-6,17,5,-3.3,3963,0,-13
COCCn1c(SCC(N)=O)nnc1-c1c[nH]c2ccccc12,-2,0,13,-6.2,4592,1,-13
NS(=O)(=O)c1ccc(CCNC(=O)Cc2ccccc2[N+](=O)[O-])cc1,3,2,-6,3.0,4487,7,-21
COc1ccccc1-c1coc2cc(O)cc(O)c2c1=O,2,-2,4,4.2,3263,0,-37
C=CCN(C(=O)c1ccc2snnc2c1)c1ccccc1,-4,8,8,4.3,5417,3,-14

# Single records (already shown). Order of screens: BJeLR viability, Mtb hypoxia inh, Mtb hypoxia inh growth, Sa RN4220 lethal, Bead autofluor, ugtP null kill, PrP UTR inh
# Results for `Cc1cc(C)n2c(SCCN3C(=O)c4ccccc4C3=O)nnc2n1` = -8, ., ., 1.3, 6397, 13, -29
# Results for `O=C(CCn1cnnn1)Nc1ccc(F)cc1` = 4, 17, -4, 3.2, 1980, 1, -25
# Results for `CCc1ccc(C(=O)NCc2ccc(Cl)cc2Cl)cc1` = -10, 15, 16, 6.0, 11127, -4, -24

# Going on with the list:
SMILES,BJeLR viability,Mtb hypoxia inh,Mtb hypoxia inh growth,Sa RN4220 lethal,Bead autofluor,ugtP null kill,PrP UTR inh
Cc1cc(C)n(-c2nc(SCCN3CCOCC3)c3c4c(sc3n2)CCCC4)n1,.,21,20,21,4048,5,-19
Cn1nc([N+](=O)[O-])nc1Oc1ccccc1F,-1,19,20,11,3159,2,-21
CN(C(=O)NC1CCCCC1)c1ccccc1,9,17,10,3.5,3546,5,-19
Cc1sc(NC(=O)c2oc3ccccc3c2C)c(C#N)c1C,0,0,7,0.7,11430,-7,-38
Cc1ccc(Cl)c2c1NC(=O)C2(O)CC(=O)c1ccccc1O (configuration not stated),-8,8,-2,3.6,4648,1,-3
CCOC(=O)CNc1nc(C(C)(C)C)nc2c1nnn2Cc1ccccc1,-7,-7,4,-2.5,3024,-3,-16
CCOC(=O)c1c(-c2cccs2)csc1NC(=O)CN(CC)CC,-2,15,6,-3.3,22950*,34,-14
Cc1ccc(-c2nn(C)c(=O)c3ccccc23)cc1S(=O)(=O)N1CCCC1,6,-2,12,4.9,5862,-1,-3
CCOC(=O)Cc1csc(NC(=O)CN2CCCCC2)n1,4,0,8,-0.7,2879,-3,-8
O=C(CC1SC(=O)NC1=O)Oc1ccc(C=NNC(=O)c2ccccc2O)cc1 (configuration not stated),.,10,10,4.0,.,4,.

# 4 of the compounds above, with values under each structure:
# Results follow in this order: BJeLR viability, Mtb hypoxia inh, Mtb hypoxia inh growth, Sa RN4220 lethal, Bead autofluor, ugtP null kill, PrP UTR inh
Cc1sc(NC(=O)c2oc3ccccc3c2C)c(C#N)c1C
→ 0, 0, 7, 0.7, 11430, -7, -38
Cc1cc(C)n(-c2nc(SCCN3CCOCC3)c3c4c(sc3n2)CCCC4)n1
→ ., 21, 20, 21, 4048, 5, -19
CCOC(=O)Cc1csc(NC(=O)CN2CCCCC2)n1
→ 4, 0, 8, -0.7, 2879, -3, -8
CCOC(=O)c1c(-c2cccs2)csc1NC(=O)CN(CC)CC
→ -2, 15, 6, -3.3, 22950*, 34, -14

# No enrichment for hits; any-hit rate near 4.1%.
